hNpr1 antagonist = blocks ANP-stimulated signaling of human Npr1 receptor | P16066 | HEK293 hNpr1 GloSensor cGMP, ANP-stimulated luminescence | Potency, µM (highest dose often 46.3 µM), without a hit: at the highest dose activity change, negative = inhibition, most hits filed as inhibitors | 1.6% of 76,000 active; active = well fitted inhibition curve with a large enough effect; inconclusive = small, poorly fitted or top-dose-only effect; inactive = no such curve, though single readings can be large or run the other way;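 also: nearly all actives have a fitted effect of over 60% in size; nearly all hits also lower the signal before the agonist is added; a reference antagonist and vehicle were the controls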
Target sequence (P16066 whole entry, looked up): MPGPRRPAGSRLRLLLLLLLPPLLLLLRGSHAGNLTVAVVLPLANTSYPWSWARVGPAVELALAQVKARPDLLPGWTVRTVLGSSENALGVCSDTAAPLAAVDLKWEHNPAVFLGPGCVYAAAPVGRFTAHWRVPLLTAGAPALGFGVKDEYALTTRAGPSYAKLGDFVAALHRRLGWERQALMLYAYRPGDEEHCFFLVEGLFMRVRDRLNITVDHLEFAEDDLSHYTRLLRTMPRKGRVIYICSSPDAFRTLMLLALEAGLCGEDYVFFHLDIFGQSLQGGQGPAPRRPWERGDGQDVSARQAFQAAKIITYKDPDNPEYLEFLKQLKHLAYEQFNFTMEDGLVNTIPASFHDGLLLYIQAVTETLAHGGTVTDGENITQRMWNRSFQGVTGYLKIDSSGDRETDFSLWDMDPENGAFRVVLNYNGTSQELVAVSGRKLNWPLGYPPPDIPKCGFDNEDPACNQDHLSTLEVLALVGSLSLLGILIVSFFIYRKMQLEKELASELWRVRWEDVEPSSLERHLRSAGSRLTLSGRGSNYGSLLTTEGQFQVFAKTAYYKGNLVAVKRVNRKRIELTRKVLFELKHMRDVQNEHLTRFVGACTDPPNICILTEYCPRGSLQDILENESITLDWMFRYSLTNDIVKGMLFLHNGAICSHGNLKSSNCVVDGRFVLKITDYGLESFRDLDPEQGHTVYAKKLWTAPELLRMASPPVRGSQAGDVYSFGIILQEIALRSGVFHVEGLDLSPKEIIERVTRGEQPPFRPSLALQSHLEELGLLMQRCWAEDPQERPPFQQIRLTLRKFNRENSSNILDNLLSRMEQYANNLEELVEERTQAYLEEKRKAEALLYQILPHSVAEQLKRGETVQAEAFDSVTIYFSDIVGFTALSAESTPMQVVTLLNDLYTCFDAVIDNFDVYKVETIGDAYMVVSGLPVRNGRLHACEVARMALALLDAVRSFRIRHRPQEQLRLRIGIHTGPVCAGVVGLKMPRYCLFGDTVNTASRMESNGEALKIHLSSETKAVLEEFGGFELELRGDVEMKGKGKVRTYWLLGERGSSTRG
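HEK293 cells stably expressing human Npr1 and cGMP GloSensor pGS-40F, loaded 2 h with 2% GloSensor reagent, given compound 30 min at room temperature. Luminescence read before and 20 min after 0.1 nM hNppA.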
* hit, by the source's call; u = inconclusive; [ ] = another dose, or the depositor's remark. % is scaled to controls: 0 for no effect and ±100 for the full control effect; potency is read from the fitted curve at half-maximal effect. Only part of the results is shown (hit frequency here may not be typical).

structure	hNpr1 antagonist
O=C1CCN(Cc2ccncc2)CCCC(C(=O)NCCCN2CCCc3ccccc32)CCN1 (stereo not drawn)	-1.1%
COC(=O)C1=C(C)N=C2SC=C(CC(=O)NCc3ccco3)N2C1c1ccccc1OC (stereo not drawn)	-1.3%
Cc1nc(CNC(=O)CC2C(=O)NCCN2Cc2ccccn2)n[nH]1 (stereo not drawn)	1.2%
O=c1c2c(n(CCOc3ccccc3)n1-c1ccccc1)CN(Cc1ccc3c(c1)CCO3)CC2	-16.6%
OC[C@@H]1O[C@H](CNC2CCOCC2)[C@H](N2CCN(c3ccccn3)CC2)[C@@H]1O	0.9%
Cc1ccc(-c2cc3c(=O)n(CCNC(=O)c4cc(Cl)ccc4F)ccn3n2)c(C)c1	-24.6%
O=C(O)[C@H](Cn1ccc(=O)[nH]c1=O)NC1CCOCC1	11.2%[70.6 µM]
CNc1nccnc1-c1cccc(CN2CCOCC2)c1	0.9%
c1ccc(CN2CCNc3cc(Nc4ccc(N5CCOCC5)cc4)ncc3C2)cc1	-11.2%[70.6 µM]
Cc1nc(CN2CCN(Cc3cc4n(n3)CCNC4)CC2)cs1	-2.8%
c1ccc(-c2noc(-c3cncnc3NCC3CCCO3)n2)cc1 (stereo not drawn)	-11.8%
Cc1noc([C@@H]2CN(S(=O)(=O)c3ccc4c(c3)CCC4)C[C@H]2C(N)=O)n1	5.3%
Cc1cn2nnc(C(=O)NCC3CC3)c2c(=O)[nH]1	-2.3%
Cc1noc([C@@H]2CN(C3CCCCC3)C[C@H]2CO)n1	4.8%
COCC[C@]1(O)CCN(C(=O)c2ccc(Cl)cc2F)C[C@H]1C	-2.3%
COCCN(C)C[C@H]1C[C@H](CO)CN(C(=O)c2cc(C)c(C)s2)C1	5.4%
CN(C)c1ccc(C(=O)N2CCC3(CC2)NC(=O)N(c2ccccc2)N3)cc1	-1.3%
COc1ccc(CCC(=O)N2CCC(Cc3nc(C4CCOCC4)no3)CC2)cc1	5.9%
CCCc1noc(-c2cn(C3CCN(C(=O)c4ccc(OC)nc4OC)CC3)nn2)n1	-18.8%
COCCCNC(=O)N1CCCOCCNC(=O)[C@@H]2CCC[C@@H]21	5.4%
CN(C)C(=O)N1CCCC(C(=O)NCc2nc(C3CCCCC3)no2)C1 (stereo not drawn)	-4.3%
O=C(Cn1ccn2nc(-c3ccc(F)cc3)c(CO)c2c1=O)N1CCN(c2ccccc2F)CC1	-4.4%
CCCc1noc(-c2cccn3c(CNC(=O)c4ccco4)nnc23)n1	3.7%
CCN1C(=O)C2(CCN(S(=O)(=O)c3ccc4c(c3)CCCC4)CC2)c2ccccc21	-1.7%
COc1cccc(S(=O)(=O)N2CCCCCNC(=O)CC2c2ccccc2)c1 (stereo not drawn)	-0.8%
CCC(=O)NCCC1CCN(C(=O)Nc2ccccc2F)CC1	-0.7%
CS(=O)(=O)Nc1cc(-c2noc([C@@H]3CCCN3Cc3ccccc3F)n2)ccn1	-6.1%[70.6 µM]
CN(C(=O)c1cc(C2CC2)[nH]n1)C1CCc2nn(CC3CC3)c(=O)n2CC1 (stereo not drawn)	1.6%
CCC1(O)CCC12CCN(C(=O)C1CC1)CC2 (stereo not drawn)	1.2%
O=C(Nc1ccc(Cl)cc1)[C@@H]1COCC(=O)N1Cc1ccc(F)cc1	0.6%

Taken from the results shown (4 entries):
structure	hNpr1 antagonist
CS(=O)(=O)Nc1cc(-c2noc([C@@H]3CCCN3Cc3ccccc3F)n2)ccn1	-6.1%[70.6 µM]
CN(C(=O)c1cc(C2CC2)[nH]n1)C1CCc2nn(CC3CC3)c(=O)n2CC1 (stereo not drawn)	1.6%
CCC1(O)CCC12CCN(C(=O)C1CC1)CC2 (stereo not drawn)	1.2%
O=C(Nc1ccc(Cl)cc1)[C@@H]1COCC(=O)N1Cc1ccc(F)cc1	0.6%

Carrying on.
structure	hNpr1 antagonist
O=C(NCCCN1CCCC1)c1ccc(-c2ccc(N3CCCCC3)nc2)cc1	-0.1%
O=C(c1ccc(F)c(F)c1)N1C[C@@H](CO)[C@H](c2ccccn2)C1	-3.8%
COCc1ccc(C(=O)N2CCc3[nH]nc(-c4ccccc4F)c3C2)s1	-7.4%
O=C(C1CCCN1)N1CCN(Cc2ccc(=O)n(CC3CC3)c2)CC1 (stereo not drawn)	-12.1%
COc1ccc(CCC(=O)N2CCn3c(nnc3[C@@H]3C[C@@H](O)CN3C(C)C)C2)cc1	-1.5%
Clc1ccc(-c2cnc([C@@H]3COCCN3Cc3c[nH]c4ccccc34)[nH]2)s1	u
CC[C@H]1CN(C(=O)c2ccc(F)cc2)CC[C@H]1CC(=O)NCCOC	1.6%[70.6 µM]
O=C1CCN(S(=O)(=O)c2ccccc2)CCCN(C(=O)CCCc2ccccc2)CCN1	3.1%
O=C(CN1CCOC1=O)N1CCCC(c2ccccc2)(c2ccccc2)C1	-1.6%
CC(C)c1noc(C2CCCN(S(=O)(=O)c3ccc4c(c3)CCC4)CCC(=O)NCC2)n1 (stereo not drawn)	5.8%
COCCn1c(C)cnc1CCNS(=O)(=O)c1cc(OC)ccc1OC	0.4%
COC1CCN(C(=O)c2cnc3c(c2)N(Cc2ccccc2)CCC3)CC1	-2.7%[70.6 µM]
O=C(NC1CC(c2nnc(CO)n2C2CC2)C1)c1nc2ccccc2[nH]1 (stereo not drawn)	-16.5%
Cc1cnc(C(=O)NC2C[C@H]3CC[C@@H](C2)N3C(=O)c2ccc(C)s2)cn1 (stereo partly drawn)	-1.9%
CN1CCC(NCC2(COc3ccc(C(F)(F)F)cn3)C[C@@H](O)[C@@H](O)C2)CC1 (stereo partly drawn)	9.3%
O=C(NCCCn1ccnc1)c1ccc(-c2ncc3cnc(-c4ccccc4)cn23)cc1	-3.7%[70.6 µM]
Cn1nc(C2CCN(C(=O)c3ccccn3)CC2)c2c1CCOC2	5.3%
CCC(C)NC(=O)c1cc2n(n1)CC(c1ccc3c(c1)OCO3)OC2 (stereo not drawn)	-5.7%
Cc1nsc(NC(=O)N2CCC(C(C)O)CC2)n1 (stereo not drawn)	1.0%
CC(C)(O)C#Cc1ccc(C(=O)N2CCC(O)(c3ccccn3)CC2)cc1	2.6%
Cc1ccccc1Cc1nc(-c2nnn3c2COC(c2ccc(Cl)cc2)C3)no1 (stereo not drawn)	-18.2%
OCCOCCn1cnc(-c2ccccc2)c1-c1ccc(-n2cccn2)cc1	-2.7%
CCNC(=O)N(C1CC1)C1CCOC2(CCN(C(=O)NCc3ccc(F)cc3)CC2)C1 (stereo not drawn)	0.5%
Cc1sc2cc(C(=O)NC3CC3)[nH]c2c1CN1CCCCC1	-6.6%
COc1ccc(-c2noc(-c3cccn3CC(=O)NC3CCCCC3)n2)cc1F	-9.2%
CNC(=O)[C@@H]1CN(S(=O)(=O)c2cnc[nH]2)C[C@H]1c1nc(C)no1	-3.0%
COc1ccc(CNC(=O)CN2CC3CC(C2)[C@H]2CCCC(=O)N2C3)cc1 (stereo partly drawn)	3.5%
O=C(c1ccncc1)N1CCC(c2nc(-c3cccnn3)no2)CC1	-0.8%
CC(=O)Nc1ccc(CN2C(=O)OC3(CCN(Cc4ccc(C#N)cc4)CC3)C2(C)c2ccccc2)cc1 (stereo not drawn)	-14.1%
CN(Cc1cccnc1)Cc1nc(C2(O)CCN(C(=O)c3cccc(F)c3)CC2)cs1	-0.2%

In a second layout: results already given
hNpr1 antagonist	molecule
-7.4%	COCc1ccc(C(=O)N2CCc3[nH]nc(-c4ccccc4F)c3C2)s1
-12.1%	O=C(C1CCCN1)N1CCN(Cc2ccc(=O)n(CC3CC3)c2)CC1 (stereo not drawn)
-1.5%	COc1ccc(CCC(=O)N2CCn3c(nnc3[C@@H]3C[C@@H](O)CN3C(C)C)C2)cc1
u	Clc1ccc(-c2cnc([C@@H]3COCCN3Cc3c[nH]c4ccccc34)[nH]2)s1
1.6%[70.6 µM]	CC[C@H]1CN(C(=O)c2ccc(F)cc2)CC[C@H]1CC(=O)NCCOC
3.1%	O=C1CCN(S(=O)(=O)c2ccccc2)CCCN(C(=O)CCCc2ccccc2)CCN1

More structures:
structure	hNpr1 antagonist
CCOc1ccccc1NC(=O)Cn1cccc1-c1nc(-c2ccc(OC)c(F)c2)no1	-19.4%
Cc1cccc(CNC(=O)CN2CC3CC(C2)[C@H]2CCCC(=O)N2C3)c1 (stereo partly drawn)	5.4%
CCN1C(=O)C2(CCN(C(=O)c3ccc(OC(C)C)cc3)CC2)c2ccccc21	-1.0%
COc1ccc2c(c1)OCC(CNC(=O)c1ccc(N3CCN(C)CC3)cc1)C2 (stereo not drawn)	1.9%
CCn1nccc1C(=O)N1CCCN(S(=O)(=O)c2ccccc2)CCC(=O)NCC1	3.3%
Cc1ccc(C(=O)N2CCC3(CC2)N=C(c2ccccc2)NO3)s1	-2.4%
CSCC(=O)N[C@H]1CCN2C(=O)c3cc(-c4cccc(C(F)(F)F)c4)ccc3NC(=O)[C@H]12	-9.9%
NC(=O)[C@H](Cc1cccs1)NC(=O)[C@@]1(O)C[C@@H](O)[C@H](O)[C@@H](NC(=O)CC2(CC(=O)O)CCCC2)C1	0.6%
CC(NC(=O)Cc1cccn1-c1cccc(Cl)c1)c1ccccn1 (stereo not drawn)	-4.9%
O=C1Nc2ccc(-c3ccsc3)cc2C(=O)N2CC[C@H](NS(=O)(=O)c3cccs3)[C@@H]12	-8.5%
COCCN1CCCCCC(O)c2cc(C(=O)NCc3ccc(N4CCC(C)CC4)cc3)ccc21 (stereo not drawn)	-8.5%
COCC(=O)N1CCCC(c2nn(-c3ccc(F)cc3)c(=O)[nH]2)C1 (stereo not drawn)	1.0%[70.6 µM]
O=C(NC[C@H]1COCc2nc3ccccc3n21)c1cnccn1	-1.4%[70.6 µM]
COCCOC1CCOC2(CCN(C(=O)CCc3ccccc3)CC2)C1 (stereo not drawn)	-16.4%
CC(C)c1ccc(CN2CC(CN[S+](=O)([O-])c3ccccc3)C3(C2)CN(c2ccccc2)C3)cc1 (stereo not drawn)	-4.2%
COC1CCCN(c2ncnc3c2CCN(C(=O)c2ccoc2)CC3)C1 (stereo not drawn)	6.4%
CN1C(=O)CC[C@]2(C(=O)NCc3cc(F)cc(F)c3)CCCC[C@@H]12	-9.4%
COCCOC1CN(C2CCN(C(=O)Nc3ccccc3F)CC2)C12CCCCC2 (stereo not drawn)	0.9%
O=C(Cc1ccc(F)cc1)N1CCCC(c2nn(-c3ccc(Cl)cc3)c(=O)[nH]2)C1 (stereo not drawn)	8.1%
Cn1nccc1OCc1cn2c(=O)n(C)cc(-c3ccc(O)c(F)c3)c2n1	u
CN(CC1CCOC1)S(=O)(=O)c1ccc(F)cc1 (stereo not drawn)	1.1%
COCc1ccc(C(=O)N[C@@H]2COCC[C@@H]2OCc2c(C)noc2C)o1	0.0%
O=S(=O)(NCc1ccccc1)N1CCCC1c1nc(-c2ccncc2)no1 (stereo not drawn)	-10.9%
COc1ccc(-c2cc(N3CCCN(C(=O)C4CCCC4)CC3)n[nH]2)cc1	-0.4%
CCOC(=O)Cc1csc(NC(=O)Cn2nc3c(cc2=O)CCCC3)n1	1.5%
O=C(CN1C(=O)NC2(CCCCC2)C1=O)NCc1ccccc1F	-0.1%
CN1CCNC(=O)C1CC(=O)O (stereo not drawn)	5.6%
CNC(=O)[C@@H]1C[C@@H](O)CN1C1CCN(C(=O)c2nn(C)c3ccccc23)CC1	3.6%
CCCCNC(=O)Cn1nc2n(c1=O)CCN(Cc1cccc(Cl)c1)C2=O	-0.7%
CCC(c1ccccn1)N(C)C(=O)c1cc(COc2ccccc2)[nH]n1 (stereo not drawn)	-0.8%

Reprinted from the part before: two compounds, followed by the next part.
CCCCNC(=O)Cn1nc2n(c1=O)CCN(Cc1cccc(Cl)c1)C2=O
  hNpr1 antagonist: -0.7%

CCC(c1ccccn1)N(C)C(=O)c1cc(COc2ccccc2)[nH]n1 (stereo not drawn)
  hNpr1 antagonist: -0.8%

O=C1Cc2c(-c3ccc(Oc4ccccc4)cc3)n[nH]c2CN1Cc1ccccc1F
  hNpr1 antagonist: -8.5%[70.6 µM]

Cc1ccc(C(=O)N2C[C@@H](Oc3cccnc3)C[C@H]2C(=O)N2CCCC2)s1
  hNpr1 antagonist: 3.9%

O=C(NCCC1CCN(C(=O)Nc2cccc(F)c2)CC1)c1cccs1
  hNpr1 antagonist: 0.2%

COc1ccc(CN2CCC3(CC2)C(=O)NCN3Cc2ccc(Cl)cc2)cc1
  hNpr1 antagonist: -10.6%

CNC(=O)c1cc(S(=O)(=O)N2CCn3nc(CO)cc3C2)cs1
  hNpr1 antagonist: 2.7%

CN(C)c1ccc(NC(=O)c2ccc3c(c2)N(C)C2CCCCN2C3=O)cc1 (stereo not drawn)
  hNpr1 antagonist: -10.0%

Cc1cccc(OCCc2noc(C3CN(C(=O)CCC4CCCC4)C3)n2)c1
  hNpr1 antagonist: 5.0%

Cc1ccc(OCc2nnc(NC(=O)NCCc3cnc[nH]3)s2)cc1
  hNpr1 antagonist: 1.9%

Cc1cccc(CC(=O)NC2CCN(c3cc(-c4cccs4)[nH]n3)C2)c1 (stereo not drawn)
  hNpr1 antagonist: -16.1%

Cc1cn(CCNC(=O)c2cn(C3CCC(N)CC3)nn2)nn1 (stereo not drawn)
  hNpr1 antagonist: 2.5%

CN1[C@@H](CCC(=O)N2CCOCC2)CNC(=O)[C@@H]2[C@H]1CCN2Cc1ccc(S(C)(=O)=O)cc1
  hNpr1 antagonist: -0.1%

CC(C)c1noc(-c2ccn3c(CNC(=O)c4ccc5ccccc5n4)nnc3c2)n1
  hNpr1 antagonist: 5.9%

O=C1NC(C(=O)N2CCN(Cc3ccccc3)CC2)CN1Cc1ccccc1 (stereo not drawn)
  hNpr1 antagonist: 14.8%

Part of the list above in another layout.
| hNpr1 antagonist | compound |
| --- | --- |
| -0.1% | O=C(CN1C(=O)NC2(CCCCC2)C1=O)NCc1ccccc1F |
| 5.6% | CN1CCNC(=O)C1CC(=O)O (stereo not drawn) |

Screening data from PubChem BioAssay.
